# Source: PubChem
# EPAC2 ant val: Validation qHTS for antagonist of cAMP-regulated guanine nucleotide exchange factor 4 (EPAC2) | Potency, µM (doses to about 112 µM), inactives show at the highest dose activity, negative = inhibition, most hits filed as inhibitors | Rap guanine nucleotide exchange factor 4 (Homo sapiens), Q8WZA2 | AID 1645886, 2021 | EPAC2 Rap1B BODIPY-GDP exchange, fluorescence | hit rate 1.7% among 16,000; active = well fitted inhibition curve with a large enough effect; inconclusive = small, poorly fitted or top-dose-only effect; inactive = no such curve, though single readings can be large or run the other way;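 also: 100% = activation by cAMP agonist control; nearly all actives have a fitted effect of over 40% in size; the record reuses the description of the EPAC1 agonist screen; inactives centre near -10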
# Target sequence (Q8WZA2 whole entry, looked up): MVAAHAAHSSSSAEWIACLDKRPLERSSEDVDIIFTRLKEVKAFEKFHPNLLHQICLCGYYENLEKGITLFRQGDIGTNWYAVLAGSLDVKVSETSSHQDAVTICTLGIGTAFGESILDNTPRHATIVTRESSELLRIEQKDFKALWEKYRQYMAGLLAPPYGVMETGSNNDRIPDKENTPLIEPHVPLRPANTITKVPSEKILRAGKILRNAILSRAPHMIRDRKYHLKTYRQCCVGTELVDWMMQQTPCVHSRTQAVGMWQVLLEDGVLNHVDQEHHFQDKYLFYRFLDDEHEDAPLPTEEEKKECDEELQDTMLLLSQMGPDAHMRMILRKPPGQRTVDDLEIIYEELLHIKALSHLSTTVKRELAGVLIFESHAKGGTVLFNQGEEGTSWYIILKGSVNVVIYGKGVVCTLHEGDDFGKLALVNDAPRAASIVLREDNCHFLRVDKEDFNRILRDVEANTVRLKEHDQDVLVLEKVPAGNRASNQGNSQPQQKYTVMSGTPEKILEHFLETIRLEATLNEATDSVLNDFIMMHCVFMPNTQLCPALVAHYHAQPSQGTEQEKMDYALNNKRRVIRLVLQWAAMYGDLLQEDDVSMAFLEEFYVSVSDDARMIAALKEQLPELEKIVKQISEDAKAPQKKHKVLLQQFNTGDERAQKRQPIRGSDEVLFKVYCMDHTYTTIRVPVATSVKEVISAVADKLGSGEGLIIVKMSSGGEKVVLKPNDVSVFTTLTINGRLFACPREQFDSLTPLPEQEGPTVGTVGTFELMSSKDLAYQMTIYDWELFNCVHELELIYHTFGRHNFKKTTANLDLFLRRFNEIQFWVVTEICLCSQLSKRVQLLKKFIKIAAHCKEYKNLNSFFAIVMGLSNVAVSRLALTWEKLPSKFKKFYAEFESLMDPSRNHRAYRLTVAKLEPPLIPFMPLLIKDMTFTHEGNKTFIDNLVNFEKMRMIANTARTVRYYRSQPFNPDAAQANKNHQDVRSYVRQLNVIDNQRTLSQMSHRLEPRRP
#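 Normalized against a 6.5 mM cAMP agonist control, compounds were tested on 100 nM EPAC2 exchanging Rap1B-bound BODIPY-GDP (250 nM) for 50 uM GDP. Fluorescence drop (ex 480, em 540 nm) was tracked at room temperature over 30 min at 5-min intervals.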
# An asterisk follows results filed as active; ? = inconclusive; & = joins results of further samples; [ ] = remark or other dose. Potency is read from the fitted curve at half-maximal effect.
SMILES,EPAC2 ant val
C(=C/c1ccccc1)/CN1CCN(CCOC(c2ccccc2)c2ccccc2)CC1,?
COc1ccc2c(c1)[C@@]13CCCC[C@H]1[C@@H](C2)NCC3,-14%
CCC1/C=C/C=CCC(C)C(O)[C@@](C)(O)C(=O)C(C)C(O)C(C)C(=O)C(C)C(O)C(C)C=CC(=O)O[C@H]2C(C)C(CC1)O[C@]1(CCC(C)C(CC(C)O)O1)C2C (stereo partly specified),?
CCOC(=O)CN1C(=O)CC(C[C@@H](O)C2C[C@@H](C)C[C@H](C)C2=O)CC1=O (stereo partly specified),-30%[151 µM]
O=C1C2CCN(CC2)C1(CO)CO,-13%
COc1ccc2[nH]cc(CCN)c2c1,-10%&-7%&-3%&-10%
COc1ccc(C(=O)c2c(C)n(CCN3CCOCC3)c3cc(I)ccc23)cc1,?
c1ccc(N2CCN(c3ccccc3)CC2)cc1,?
COc1nn(CSP(=S)(OC)OC)c(=O)s1,13%[239 µM]
CCCN(C/C=C/I)C1CCc2ccc(O)cc2C1 (stereo unspecified),?
C[N+]1(C)[C@@H]2CC[C@H]1CC(OC(=O)C(CO)c1ccccc1)C2 (stereo partly specified),-14%[56.6 µM]
COCC(=O)N(c1c(C)cccc1C)C(C)C(=O)OC (stereo unspecified),7%
Cn1cccc1-c1cccnc1,-1%
CC(C)N1C(=O)c2ccccc2NS1(=O)=O,-8%
O=C1CCCCC1CN1CCCCC1 (stereo unspecified),5%
O=C(Nc1cccc(F)c1)N1CC2(CCNCC2)C1,-28%
CC(C)NC(=O)N1CC[C@@]2(CCCNC2)C1,-8%
COC(=O)N1CCN(C(=O)Cc2ccc(Cl)c(Cl)c2)[C@H](CN2CCCC2)C1,-29%
COc1ccc2c(c1O)-c1c(OC)c(OC)cc3c1[C@@H](C2)N(C)CC3,-23%
CC(C)[N+](C)(CCC(C(N)=O)(c1ccccc1)c1ccccc1)C(C)C,-10%
Clc1ccc(C2(Cn3cncn3)OCCO2)c(Cl)c1,9%
NC(N)=Nc1ccc2[nH]c3c(c2c1)C[C@@]1(O)[C@H]2Cc4ccc(O)c5c4[C@@]1(CCN2CC1CC1)[C@H]3O5,-12%
CC(C)(Cc1c[nH]c2ccc(Cl)cc12)NCCOc1ccccc1OCC1CC1,?
O=c1cccc2n1CC1CC2CN(CCO)C1 (stereo unspecified),-11%
C[C@H]1CCC[C@H](O)CCCCCc2cc(O)cc(O)c2C(=O)O1,-29%

# Part of the list above in order of molar mass, low to high.
SMILES,EPAC2 ant val
CCOC(=O)CN1C(=O)CC(C[C@@H](O)C2C[C@@H](C)C[C@H](C)C2=O)CC1=O (stereo partly specified),-30%[151 µM]
NC(N)=Nc1ccc2[nH]c3c(c2c1)C[C@@]1(O)[C@H]2Cc4ccc(O)c5c4[C@@]1(CCN2CC1CC1)[C@H]3O5,-12%
CCC1/C=C/C=CCC(C)C(O)[C@@](C)(O)C(=O)C(C)C(O)C(C)C(=O)C(C)C(O)C(C)C=CC(=O)O[C@H]2C(C)C(CC1)O[C@]1(CCC(C)C(CC(C)O)O1)C2C (stereo partly specified),?

# The main list resumes; the two compounds before the break are reprinted first.
SMILES,EPAC2 ant val
O=c1cccc2n1CC1CC2CN(CCO)C1 (stereo unspecified),-11%
C[C@H]1CCC[C@H](O)CCCCCc2cc(O)cc(O)c2C(=O)O1,-29%
Nc1ncnc2c1ncn2[C@@H]1O[C@H](COP(=O)(O)CP(=O)(O)O)[C@@H](O)[C@H]1O,1%
NC(CP(=O)(O)O)C(=O)O (stereo unspecified),-3%&-6%
CN1CC[C@@]23CCCC[C@@H]2[C@@H]1Cc1ccc(O)cc13,6%
Cc1nc(N)sc1CCN,2%&-14%
C[N+]1(C)C2CCC1CC(OC(=O)c1c[nH]c3ccccc13)C2 (stereo unspecified),-1%
CCCC(=O)OC(C(Cl)(Cl)Cl)P(=O)(OC)OC (stereo unspecified),?
CC(=O)O[C@H]1CC[C@H]2[C@@H]3CCC4=CC(=O)CCC4=C3C=C[C@]12C,-2%
CC(C)(C)NC[C@H](O)c1ccc(O)cc1Cl,28%
COP(=S)(OC)Oc1ccc(Sc2ccc(OP(=S)(OC)OC)cc2)cc1,-28%
CN1Cc2c(ccc3c2OCO3)C2C(O)Cc3cc4c(cc3C21)OCO4 (stereo unspecified),-16%&-15%
CC(C)[C@@]1(NC(=O)[C@@H]2C[C@H]3c4cccc5[nH]cc(c45)C[C@@H]3N(C)C2)O[C@@]2(O)[C@H]3CCCN3C(=O)[C@H](Cc3ccccc3)N2C1=O,?
CC(C)(C)C(=O)C(Oc1ccc(Cl)cc1)n1cncn1 (stereo unspecified),-26%
COc1ccc(CC2NC[C@H](O)[C@H]2OC(C)=O)cc1 (stereo partly specified),-9%
COc1cc(CCN)cc(OC)c1OC,1%[239 µM]
CCOP(=S)(OCC)Oc1ccc2c(C)c(Cl)c(=O)oc2c1,-21%
CCN1C[C@@]2(COC)C3[C@@H](OC)C4[C@@H]1[C@@]3(C1C[C@@]3(O)[C@H](OC(=O)c5ccccc5)C1[C@]4(OC(C)=O)[C@@H](O)[C@@H]3OC)[C@@H](OC)C[C@H]2O (stereo partly specified),-18%
CCCCCCCCCCCCCCCCOC[C@H](COP(=O)([O-])OCC[N+](C)(C)C)OC(C)=O,-12%[11.4 µM]
O=C1c2ccccc2C(=O)c2ccccc21,13%&-17%
O=C(CCl)c1ccc(Oc2ccc(C(=O)CCl)cc2)cc1,-19%
O=C(O)/C=C\C(=O)O,-2%
C/C=C1/C[C@@H](C)[C@](O)(CO)C(=O)OCC2=CCN3CC[C@@H](OC1=O)C23 (stereo partly specified),-12%
CC(C)=CC1C(C(=O)OCN2C(=O)C3=C(CCCC3)C2=O)C1(C)C (stereo unspecified),-16%
CC(Cc1cccc(C(F)(F)F)c1)NCCCc1ccccc1 (stereo unspecified),0%
C=CCc1ccc2c(c1)OCO2,-4%
CCC1(c2ccccc2)C(=O)NC(=O)N(C)C1=O (stereo unspecified),1%

# Next part; it opens with the 3 that closed the last part.
SMILES,EPAC2 ant val
CC(Cc1cccc(C(F)(F)F)c1)NCCCc1ccccc1 (stereo unspecified),0%
C=CCc1ccc2c(c1)OCO2,-4%
CCC1(c2ccccc2)C(=O)NC(=O)N(C)C1=O (stereo unspecified),1%
Cc1ccc(C[N+](C)(C)C)o1,-5%&-6%&-21%
COC(=O)[C@@H](N)CCCN=C(N)N[N+](=O)[O-],11%&-13%
C[C@]12CC[C@H](OS(=O)(=O)O)CC1=CC[C@@H]1[C@@H]2CC[C@]2(C)C(=O)CC[C@@H]12,?
C/C=C1/CN2CC[C@]34C(=C(C=O)[C@@H]1C[C@H]23)Nc1c(O)cccc14,-6%
CCCCCCCCOC(=O)c1ccccc1C(=O)OCCCCCCCC,-13%
O=c1oc2ccccc2c(O)c1C(c1ccccc1O)c1c(O)c2ccccc2oc1=O,?
CNCC/C=C\c1cccnc1,-13%
N[C@H](Cc1o[nH]c(=O)c1Cl)C(=O)O,-15%
CC(C)(N)Cc1ccc(Cl)cc1,-5%
CCOC(=O)[C@]12Cc3cc(OC)c(OC)cc3[C@H]1N(Cc1ccccc1)C(=O)c1ccccc12,-3%
CC[C@]1(O)CC[C@H]2[C@@H]3CCC4=CCCC[C@@H]4[C@H]3CC[C@@]21C,3%
CC(=O)OC1C2CCC3C1(CC(O)[C@@]1(O)[C@@H](CC(O)C1(C)C)[C@]3(C)O)C[C@@]2(C)O (stereo partly specified),5%
Cc1nc2ccccc2c(=O)n1-c1ccccc1Cl,-9%[239 µM]
OC1CCCCC1N1CCC(c2ccccc2)CC1 (stereo unspecified),-21%&-14%
CC1(C)N([O-])[N+](=O)C1(C)Br (stereo unspecified),0%
Cc1nccc2c1[nH]c1ccccc12,?
NC(=O)c1cc([N+](=O)[O-])cc([N+](=O)[O-])c1,-12%
C/C=C(/C)C(=O)O[C@H]1C(C)=C2[C@H]([C@@H]1OC(=O)CCCCCCC)[C@@](C)(OC(C)=O)C[C@H](OC(=O)CCC)[C@@]1(O)[C@H]2OC(=O)[C@@]1(C)O,?
NC(=O)CN1CCCC1=O,-4%
O=C(O)CC[N+](=O)[O-],1%
CC(C)(C)NC[C@H](O)COc1cccc2[nH]c(C#N)cc12,9%
CNc1ccc2oc(C[C@@H]3OC4(CC[C@@H]3C)O[C@H]([C@@H](C)C(=O)c3ccc[nH]3)[C@H](C)C[C@H]4C)nc2c1C(=O)O (stereo partly specified),?
O=C(O)CNCP(=O)(O)O,-1%
Ic1cncc(OC[C@@H]2CCN2)c1,-14%
O=[N+]([O-])c1ccc(O[C@@H]2O[C@H](CO)[C@@H](O)[C@H](O)[C@H]2F)c([N+](=O)[O-])c1,-3%
# New compounds follow
SMILES,EPAC2 ant val
O=C(O)C(Cl)Cl,-1%&2%
Nc1c(Cl)c(Cl)c(Cl)c(Cl)c1Cl,1%[239 µM]
C[C@@]12C=CC(=O)C=C1CCC1C2CC[C@]2(C)C(=O)CCC12 (stereo partly specified),-15%
c1ccc(C2CC2)c(OCC2=NCCN2)c1,?
COc1ccc2c(c1)[nH]c1c(C)nccc12,2%&-4%&-28%&-31%
C[N+]1([O-])CCC[C@@H]1c1cccnc1 (stereo partly specified),-13%
S=C=S,-17%
COc1ccccc1CN1CCCC2(CCN(C(=O)Oc3ccccc3)CC2)C1,-15%
S=C=Nc1cccc(C2(N3CCCCC3)CCCCC2)c1,-13%
NC(CCP(=O)(O)O)C(=O)O (stereo unspecified),-6%&4%
CCOc1ccc2c3c1O[C@H]1[C@@H](O)C=C[C@H]4[C@@H](C2)N(C)CC[C@@]341,48%[activator]
COC(=O)/C=C\C(=O)N[C@@H]1CC[C@@]2(O)[C@H]3Cc4ccc(O)c5c4[C@@]2(CCN3CC2CC2)[C@@H]1O5,-4%
O=C(Oc1ccccc1)N1CCC2(CC1)CN(Cc1ccncc1)C2,-29%
CCN1C[C@]2(C)CC[C@H](OC)[C@@]34[C@H]1C1(OCO[C@@]15C[C@H](OC)C1C[C@]3(O)C5[C@H]1OC)[C@@H](O)[C@H]24,2%
Oc1ccc2c3c1O[C@H]1c4c(c5ccccc5n4Cc4ccccc4)C[C@]4(O)[C@H](C2)N(CC2CC2)CC[C@@]314,?
O=c1[nH]cc(N(CCCl)CCCl)c(=O)[nH]1,71µM*
CCS(=O)CCSP(=O)(OC)OC (stereo unspecified),4%
N#CC(C#N)=Cc1ccc(O)c(O)c1,6%&-1%&-14%&-19%
CCC(C)C(=O)OC1C[C@@]2(C)C(c3ccoc3)OC(=O)CC23OC2(C)OC34C(OC(=O)C(C)C)[C@]3(O)C(OC(=O)C5(C)OC5C)[C@]5(C)CC3(O)[C@](C)(C5CC(=O)OC)C14O2 (stereo partly specified),?
O=c1c(O)c(-c2ccc(O)c(O)c2)oc2c(O)c(O)cc(O)c12,-4%
C[C@]12CCC(=O)C(O)=C1CC[C@@H]1[C@H]3CCC(=O)[C@@]3(C)CC[C@@H]12,10%
CCN(CC)CCO[C@H]1CC[C@@]2(C)C(=CC[C@@H]3[C@@H]2CC[C@]2(C)C(=O)CC[C@@H]32)C1,5%
CCCN(CCC)C1CCc2ccc(O)cc2C1 (stereo unspecified),-11%&-3%
C[C@@H](Cc1ccccc1)N(C)C,9%
CC[C@@H](CO)NC(=O)[C@@H]1C=C2c3cccc4c3c(cn4C)C[C@H]2N(C)C1,?
# Following part.
SMILES,EPAC2 ant val
CCCC(C)C1(CC)C(=O)NC(=O)NC1=O (stereo unspecified),1%
CC(C)CCON=O,-20%
C[C@@H](Cc1ccccc1)NCCC(c1ccccc1)c1ccccc1,8%[56.6 µM]
CC(=O)OC1CC2C(C)(C)C(O)C=C[C@@]2(C)C2CC[C@]3(C)C(=CC(=O)OC3c3ccoc3)[C@]12C (stereo partly specified),0%
CCCC[C@@H](C)[C@@H](OC(=O)C[C@@H](CC(=O)O)C(=O)O)[C@H](C[C@@H](C)C[C@H](O)CCCC[C@@H](O)C[C@H](O)[C@H](C)N)OC(=O)C[C@H](CC(=O)O)C(=O)O,-18%
C=CCN=C=S,-18%
CCCCCCC[n+]1ccc(-c2cc[n+](CCCCCCC)cc2)cc1,-26%
CCC/C=C/C=C/C(=O)O[C@H]1/C(=C/C(=O)OC)C[C@H]2C[C@H]([C@@H](C)O)OC(=O)C[C@H](O)C[C@@H]3C[C@H](OC(C)=O)C(C)(C)[C@](O)(C[C@@H]4C/C(=C/C(=O)OC)C[C@H](/C=C/C(C)(C)[C@]1(O)O2)O4)O3,-29%
CCCC[N+]1(C)[C@@H]2CC(OC(=O)[C@H](CO)c3ccccc3)C[C@H]1[C@@H]1O[C@@H]12 (stereo partly specified),-7%
C[C@]12C[C@H]3S[C@H]3C[C@@H]1CC[C@@H]1[C@@H]2CC[C@]2(C)[C@@H](O)CC[C@@H]12,-11%[56.6 µM]
CN(CCc1ccc(Cl)c(Cl)c1)[C@@H]1CCCC[C@@H]1N1CCCC1,-2%
CN1CC[C@@H]2CN3CCc4cccc(c43)[C@H]2C1,-8%
C=C(C)[C@H]1O[C@H]2CC[C@@]3(C)[C@@](O)(CC[C@H]4[C@@H]5OC(C)(C)[C@H]6C[C@@H]7C(=C)Cc8c(Cl)cc9[nH]c(c5c9c8[C@@]76O)[C@@]43C)[C@]23O[C@@H]3[C@H]1O,-26%
CC(=O)c1c(O)c(C)c(O)c(Cc2c(O)c3c(c(C(=O)/C=C\c4ccccc4)c2O)OC(C)(C)C=C3)c1O,?
c1cncc(C2CCCN2)c1 (stereo unspecified),-20%
O=S(=O)(O)C(F)(F)C(F)(F)C(F)(F)C(F)(F)F,-9%[239 µM]
CN1C(=O)COc2c(C(=O)NC3CN4CCC3CC4)cc(Cl)cc21 (stereo unspecified),-19%
O=C(Cc1ccc(Cl)c(Cl)c1)N1CCCC[C@H]1CN1CCCC1,-19%
CC1CC[C@]2(NC1)OC1CC3C4CC=C5CC(O)CC[C@@]5(C)C4CC[C@]3(C)C1C2C (stereo partly specified),5%

# Only part of the results is shown; rates above refer to the full screens.
